Vaccinia Venus = qHTS for Stage-Specific Inhibitors of Vaccinia Orthopoxvirus: Venus Reporter Primary qHTS. Vaccinia virus Venus reporter expression, fluorescence. actives 0.46% (n = 330,000). Potency, µM (series often up to 36.5 µM), for inactives: at the top dose activity change, negative = inhibition, hits mostly inhibitors; active means well fitted inhibition curve with a large enough effect; inconclusive means small, poorly fitted or top-dose-only effect; inactive means no such curve, though single readings can be large or run the other way; tested in A549 cells; note: nearly all actives have a fitted effect of over 30% in size; inactives centre near -10
Vaccinia mCherry = qHTS for Stage-Specific Inhibitors of Vaccinia Orthopoxvirus: mCherry Reporter Primary qHTS; Potency, µM (top dose mostly 36.5 µM), for inactives: at the top dose activity change, negative = inhibition, actives largely listed as inhibitors; Vaccinia virus mCherry reporter infection, fluorescence; about a quarter of the inactives have no number; actives 0.63% (n = 310,000); active = well fitted inhibition curve with a large enough effect; inconclusive = small, poorly fitted or top-dose-only effect; inactive = no such curve, though single readings can be large or run the other way; tested in A549 cells; note: nearly all actives have a fitted effect of over 35% in size; inactives centre near -10
* marks the source's active call; other numbers are inactive results; i = inactive; ? = inconclusive; . = no result given; [ ] = another dose, or the depositor's remark. % is set by controls: 0 for no effect and ±100 for the full control effect; potency is the fitted concentration of half-maximal effect.

SMILES | Vaccinia Venus | Vaccinia mCherry
Cc1nn2c(-c3cccc(NC(=O)c4ccccc4)c3)nnc2c2ccccc12 | -11% | -20%
COc1ccccc1CNC(=O)C1CCN(c2nc3ccc(C)cc3[nH]2)CC1 | -10% | -10%
COc1ccc(/C=C2\CN(Cc3ccccc3)C/C(=C\c3ccc(OC)cc3)C2=O)cc1 | -9% | -14%
Cc1c2cnccc2c(C)c2c1c1ccccc1n2CCOC(=O)c1ccccc1 | -13% | -11%
C=C(C)Cn1c(COc2ccccc2)nnc1SCC(=O)O | -14% | -1%[1.46 µM]
COc1ccc(CC(=O)NCc2cccc(Cl)c2)cc1S(=O)(=O)N1CCOCC1 | -6% | -11%
Fc1ccc(C(OCCN2CCCC2)c2ccc(F)cc2)cc1 | -16% | -5%
CCCCCC(=O)NC(=S)NC1C2CC3CC(C2)CC1C3 (stereo not drawn) | -17% | -3%
Cc1cc(C)c2nc3nc(C)c(C)cc3c(N)c2c1 | ? | ?
CCOc1ccc(C(=O)Nc2ccc(-c3nc4ccccc4s3)c(C)c2)cc1OCC | -12% | -4%
Cc1ccc(NC(=O)Cn2nc(C(F)(F)F)c3c2CCCC3)cc1 | -8% | -12%
CCOC(=O)C(C(=O)OCC)c1c([N+](=O)[O-])c(=O)n2c3c(cccc13)CCC2 | -11% | -3%
COc1cc2c(cc1OC)C(CNC(=O)C=Cc1cc(OC)c(OC)c(OC)c1)C2 (stereo not drawn) | 1% | -16%
Cc1cc(=O)oc2cc(OCC(=O)NCC3CCC(C(=O)O)CC3)ccc12 (stereo not drawn) | -11% | -9%
CCOC(=O)CSC1=C(C#N)C(c2ccccc2OCC)C(C(=O)OCC)C(=O)N1 (stereo not drawn) | -10% | -12%
O=C(CCN1C(=O)c2ccccc2C1=O)Nc1cccc(F)c1 | -12% | -19%
O=C(c1ccc2c(c1)OCO2)N1CCN=C1SCc1ccccc1 | -13% | i
COC(=O)C1=C(c2cccc(OC)c2OC)C[C@@H]2CC[C@H]1N2C(=O)N1CCCCC1 | 0% | -8%
O/N=C/c1ccc2ccccc2n1 | 1%[7.34 µM] | i[7.34 µM]
COc1ccc(C(CC(=O)Nc2ccccn2)N2Cc3ccccc3C2=O)cc1 (stereo not drawn) | 1% | -14%
CCOC(=O)C(C)Sc1nc(-c2cccs2)ccc1C#N (stereo not drawn) | -12% | -14%
O=S(=O)(NC1c2cccc3cccc(c23)C1N1CCN(CCO)CC1)c1ccccc1 (stereo not drawn) | ? | .
COc1ccc(C2=NN(C(=O)CSc3ncccn3)C(c3ccc(OC)cc3)C2)cc1 (stereo not drawn) | -21% | -3%
CCOC(=O)N1CCC(Nc2cc(C)nc3c(-c4ccccc4OC)c(C)nn23)CC1 | ? | ?
O=C(Nc1ccccc1F)c1ccc(-c2ccccc2)s1 | -11% | -2%

Entries of single compounds, looked up by structure. Screens in order: Vaccinia Venus | Vaccinia mCherry
Results for CCOC(=O)CSC1=C(C#N)C(c2ccccc2OCC)C(C(=O)OCC)C(=O)N1 (stereo not drawn) = -10% | -12%
Results for O=C(Nc1ccccc1F)c1ccc(-c2ccccc2)s1 = -11% | -2%
Results for CCOc1ccc(C(=O)Nc2ccc(-c3nc4ccccc4s3)c(C)c2)cc1OCC = -12% | -4%
Results for CCOC(=O)N1CCC(Nc2cc(C)nc3c(-c4ccccc4OC)c(C)nn23)CC1 = ? | ?

Reprinted from above (two entries):
SMILES | Vaccinia Venus | Vaccinia mCherry
O=S(=O)(NC1c2cccc3cccc(c23)C1N1CCN(CCO)CC1)c1ccccc1 (stereo not drawn) | ? | .
COc1ccc(C2=NN(C(=O)CSc3ncccn3)C(c3ccc(OC)cc3)C2)cc1 (stereo not drawn) | -21% | -3%

Later entries.
SMILES | Vaccinia Venus | Vaccinia mCherry
O=C(c1nc2ccc(Cl)cn2c1CNCC[C@@H]1C[C@@H]2C=C[C@H]1C2)N1CCCCCCC1 | -20% | i
O=C(COC(=O)/C=C/c1ccc(Cl)cc1Cl)Nc1cccc(S(=O)(=O)NC2=NCCC2)c1 | -20% | i
Cc1ccc(NC2c3ccccc3C(=O)N2c2cccnc2)cc1 (stereo not drawn) | -20% | ?
Cc1ccn2c(NC(=O)c3ccccc3)c(-c3ccccc3)nc2c1 | -7% | -17%
COc1ccc(-c2nc(SCC(=O)Nc3cccc(S(N)(=O)=O)c3)n[nH]2)cc1 | 4% | -8%
COc1ccc(C(=O)Nc2cc(C)on2)cc1[N+](=O)[O-] | -5% | -6%
O=C1CCN(Cc2ccccc2)C=C1c1cccc(O)c1 | -21% | -8%
C[C@]12CC[C@H](O)C[C@H]1CC[C@@H]1[C@@H]2CC[C@]2(C)C(=O)CC[C@@H]12 | 0% | 11%
COc1ccc(-c2nc(C)ncc2-c2csc(C)n2)c(O)c1 | -14% | -24%
C/C(=N/NC(=O)CNC(=O)COc1ccccc1)c1ccco1 | -8% | -22%
CC1(C)CC(OC(=O)c2ccccc2)CC(C)(C)N1 | -11% | i
C=CCOc1ccc(CNc2nccs2)cc1OCC | -20% | .
CC1CCc2c(sc(NC(=O)CSc3nc4c(c(C(F)(F)F)n3)CCc3ccccc3-4)c2C(N)=O)C1 (stereo not drawn) | -16% | -3%
CCN(CC)CCCNC(=O)c1cc2c(-c3cccc(OC)c3)nn(C)c2s1 | -23% | -7%
Cc1c(NC(=S)N/N=C/C=C/c2ccc([N+](=O)[O-])cc2)c(=O)n(-c2ccccc2)n1C | -19% | i
Cc1[nH]c2ccccc2c1CCO | -9% | .
CCCCn1c(N)c(N(CC(C)C)C(=O)CC2OC(=O)c3ccccc32)c(=O)[nH]c1=O (stereo not drawn) | -6% | -11%
CCOc1ccc(NC(=O)c2cccc(S(=O)(=O)NCc3cccnc3)c2)cc1 | -12% | i
CCCOc1nc(N)c(C#N)c(-c2ccccc2F)c1C#N | -22% | -25%
C[N+]1(CC(=O)c2ccc(Br)cc2)CCOCC1 | -11% | -22%
CCOc1ccc(N(CC(=O)Nc2ccccc2F)S(=O)(=O)c2c(C)[nH]c(=O)[nH]c2=O)cc1 | -13% | -11%
C[C@@H]1CN([C@H](C)CO)C(=O)CCCn2cc(nn2)CO[C@H]1CN(C)S(=O)(=O)c1cccc(C#N)c1 | -22% | -13%
O=C(Nc1cccc(S(=O)(=O)N2CCCCC2)c1)c1ccc2ccccc2n1 | -16% | -26%
CC(=O)c1c(C)[nH]c(C(=O)Nc2ccc(Cl)cc2F)c1C | 6% | 0%
COc1ccccc1OCCC(=O)OCC(=O)NC(=O)NC(C)(C)C | -8% | -17%

Going on with the list.
SMILES | Vaccinia Venus | Vaccinia mCherry
CS(=O)(=O)c1ccc2nc(NC(NC(=O)c3ccco3)(C(F)(F)F)C(F)(F)F)sc2c1 | -12% | -12%
CCOc1ccc(NC(=O)N(CCN(C)C)C(C)c2ccncc2)cc1 (stereo not drawn) | 0% | 10%
COc1ccc(S(=O)(=O)Nc2c(C)n(C)n(-c3ccccc3)c2=O)cc1Br | 5% | -10%
Cc1ccc(NC(=O)CNCc2cccs2)cc1Br | -9% | -11%
COc1cc(NC(=O)c2cc(C3CC3)nc3c2c(C)nn3-c2ccc(C)cc2)cc(OC)c1 | -19% | -9%
O=c1c(/C=N/N2CCOCC2)c(O)n(-c2ccccc2)c(=S)n1-c1ccccc1 | -6% | -11%
CCOC(=O)c1sc(NC(=O)CC(C)c2ccccc2)nc1C (stereo not drawn) | -26% | -15%
Cc1c(S(=O)(=O)NC(C)c2ccccc2)c(=O)n(C)c(=O)n1C (stereo not drawn) | -6% | i
COCCOC(=O)C1=C(C)NC(C)=C(C(=O)OCCOC)C1/C=C/c1ccccc1OC | -15% | i
CC(=O)Nc1ccc(NC(=O)CCOc2cc(C)ccc2C)cc1 | -9% | -17%
CCCCC(=O)N(CCOC)c1nnc(-c2ccc(OC)cc2)s1 | -18% | i
Cc1ccc(OC(C)C(=O)N2CCN(c3ccccn3)CC2)cc1 (stereo not drawn) | -11% | i
CCN(CC)CCNC(=O)C1CCN(S(=O)(=O)N2CCCCC2)CC1 | -8% | -2%
COc1ccc(-c2csc(NCc3ccco3)n2)cc1 | -21% | .
O=C(Nc1ccccc1C(=O)NCc1ccccc1)c1ccccc1 | -14% | -19%
COc1ccc(C)cc1NC(=O)C(OC(=O)CNC(=O)c1ccc(Oc2ccccc2)cc1)c1ccccc1 (stereo not drawn) | -13% | i
CC(=O)c1sc(NC(=O)CCS(=O)(=O)c2ccc(Cl)cc2)nc1C | -9% | -21%
ClCc1ncc(-c2ccc(Cl)cc2)o1 | -7% | i
Cc1ccccc1S(=O)(=O)Nc1ncnc2ccccc12 | -6% | 2%
COc1ccc(NS(=O)(=O)c2cccc(C(=O)NN=Cc3ccc(OC)cc3OC)c2)cc1 | -7% | i
CCCCCN(C(=O)NC(=O)Nc1nncs1)S(C)(=O)=O | -7% | i
O=C1c2c(-c3ccc(Br)cc3)noc2CCN1Cc1cn(-c2ccc(Cl)cc2)nn1 | -15% | -20%
C[C@H]1CN([C@@H](C)CO)S(=O)(=O)c2ccc(Br)cc2O[C@H]1CN(C)C(=O)c1cnccn1 | -3% | -27%
O=C(NC(=S)NN1CCOCC1)c1cc(Br)ccc1Cl | -12% | i
CC(NC(=O)Nc1ccc(Cl)cc1)c1ccc2c(c1)OCO2 (stereo not drawn) | 7% | -13%

(cont.)
SMILES | Vaccinia Venus | Vaccinia mCherry
Cc1cccc(-c2noc(-c3ccc(Cl)cc3[N+](=O)[O-])n2)c1 | -9% | i
COc1cccc(CNC(=O)CN2c3cccc4cccc(c34)S2(=O)=O)c1 | -13% | i
C1CCc2c(nnc3c2-c2nonc2CC3)C1 | -12% | -12%
Cc1cccc(NC(=O)C2CCCN(S(=O)(=O)c3c(C)noc3/C=C/N(C)C)C2)c1C (stereo not drawn) | -7% | -4%
Cc1nc(N2CCOCC2)c2c(C(=O)NCc3ccc(Cl)cc3)c(C)oc2n1 | -10% | i
COC(=O)/C(=N\Nc1ccccc1)Sc1nnc(-c2ccc(OC)cc2)n1C | -2% | -7%
N#CCc1c(C#N)c(N)nc(N2CCN(Cc3ccc4c(c3)OCO4)CC2)c1C#N | -1% | -11%
COc1cccc(NC(=O)CCC2CCN(C(=O)c3scnc3C)CC2)c1 | -7% | -5%
O=c1c(N2CCCCC2)csc2ccc(F)cc12 | -15% | -15%
Cc1ccnc(NS(=O)(=O)c2ccc(NC(=O)C3CCCO3)cc2)n1 (stereo not drawn) | -5% | -13%
COc1ccc(Br)cc1CN1CCN(S(=O)(=O)Cc2ccccc2)CC1 | -9% | -16%
COc1ccc(CNCc2ccc(C(F)(F)F)cc2)cc1OC | -9% | -12%
CCc1nc(NCC2CCCO2)c(C#N)c2c1COC(C)(C)C2 (stereo not drawn) | -3% | i
COc1ccccc1CNC(=O)c1cc2c(=O)n(Cc3cccs3)ccc2nc1C | -13% | -5%
Cc1ccc(NC(=O)CCN2CCN(C)CC2)cc1 | -26% | -13%
Cc1nnc(NC(=O)CSc2ccc(-c3cccnc3)nn2)s1 | -12% | i
Cc1nc(-c2ccncc2)nc(NCCNc2ccc(C(F)(F)F)cn2)c1Cl | -19% | -1%
Cc1ccccc1-n1c(-c2ccc(Cl)cc2)cnc1SCC(=O)NC1CCS(=O)(=O)C1 (stereo not drawn) | -23% | -3%
CS(=O)(=O)N1CCC(C(=O)N2CCN(c3cccc(Cl)c3)CC2)CC1 | -14% | -2%
Cn1nc(C(=O)OCC(=O)c2ccc(Br)cc2)c2ccccc2c1=O | 3% | i
CN(C)C(=S)N=c1ssc(=S)n1Cc1ccco1 | -20% | ?
Cc1nc(-n2nc(C)c(CCC(C)C)c2C)sc1C(=O)Nc1ccc(Cl)cc1 | -11% | -13%
CC(=O)Nc1cccc(N)c1 | -6% | i
O=C(N/N=C\c1ccccn1)c1ccccc1O | -19% | ?
O=C(NCc1cccnc1)C1CC(=O)N(CCc2ccccc2)C1 (stereo not drawn) | -1% | i

Part of the list above in order of molar mass, rising.
SMILES | Vaccinia Venus | Vaccinia mCherry
CC(=O)Nc1cccc(N)c1 | -6% | i
CCc1nc(NCC2CCCO2)c(C#N)c2c1COC(C)(C)C2 (stereo not drawn) | -3% | i
O=C(NCc1cccnc1)C1CC(=O)N(CCc2ccccc2)C1 (stereo not drawn) | -1% | i
Cc1nnc(NC(=O)CSc2ccc(-c3cccnc3)nn2)s1 | -12% | i

Compounds listed so far containing a COOH group:
SMILES | Vaccinia Venus | Vaccinia mCherry
C=C(C)Cn1c(COc2ccccc2)nnc1SCC(=O)O | -14% | -1%[1.46 µM]
Cc1cc(=O)oc2cc(OCC(=O)NCC3CCC(C(=O)O)CC3)ccc12 (stereo not drawn) | -11% | -9%

New compounds follow.
SMILES | Vaccinia Venus | Vaccinia mCherry
Cc1csc(NC(=O)CSc2nnc(NC(=O)COc3ccccc3)s2)n1 | -24% | -9%
CC(Oc1ccccc1)C(=O)NC1CCCCCCC1 (stereo not drawn) | -4% | i
O=C1CCCN1CCCNC(=S)Nc1cccc2ccccc12 | -16% | ?
CCOC(=O)c1c(-c2ccccc2)csc1NC(=O)c1cc(-c2ccc(Br)cc2)on1 | -10% | -10%
O=C(Cc1ccc(Cl)cc1Cl)Nc1ccc(OC(F)F)c(Cl)c1 | -21% | -27%
C[C@H]1CN([C@@H](C)CO)C(=O)CCCn2nncc2CO[C@H]1CN(C)S(=O)(=O)c1ccccc1 | -9% | i
Cc1ccc(S(=O)(=O)CC(=O)NCc2ccccc2)cc1 | -2% | i
COc1ccc(-c2nc3cc(C)ccc3cc2CN(C(=O)c2ccco2)C2CC2)cc1OC | -3% | -13%
NC(Cc1ccc(C(F)(F)F)cc1)c1csc(NC(=O)Nc2ccccc2Oc2ccccc2)n1 (stereo not drawn) | ? | -19%
CCOC(=O)C1=NNC(C(=O)O)C1c1ccccc1 (stereo not drawn) | -14% | -16%
Nc1c(CO)nnn1-c1ccccc1 | -2% | -13%

From PubChem BioAssay
